GIRK2 act – activators of human GIRK2 potassium channels | calls only for hits at 25 µM | 63,000 tested, 0.05% active | HEK293-GIRK2 thallium flux, Thallos fluorescence | AID 1259325, 2017 | G protein-activated inward rectifier potassium channel 2 (Homo sapiens), P48051;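 active = among the strongest 0.2% of first-round signals and kept after retests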;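 note: first round at about 10 µM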
Target sequence (P48051 whole entry, looked up): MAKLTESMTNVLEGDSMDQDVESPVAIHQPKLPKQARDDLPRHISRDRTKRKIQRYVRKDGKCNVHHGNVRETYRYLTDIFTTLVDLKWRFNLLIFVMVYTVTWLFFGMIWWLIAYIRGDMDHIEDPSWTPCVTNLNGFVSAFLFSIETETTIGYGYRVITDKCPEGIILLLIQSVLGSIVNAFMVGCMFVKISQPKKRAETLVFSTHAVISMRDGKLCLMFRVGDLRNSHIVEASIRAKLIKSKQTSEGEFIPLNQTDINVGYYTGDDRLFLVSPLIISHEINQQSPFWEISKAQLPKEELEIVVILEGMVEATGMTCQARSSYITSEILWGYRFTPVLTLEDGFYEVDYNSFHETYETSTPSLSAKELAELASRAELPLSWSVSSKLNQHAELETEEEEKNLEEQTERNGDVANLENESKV
Calls only; i = inactive. An excerpt; count on the stated rates, not on these rows.

SMILES	GIRK2 act
CCCc1cnc2c(c1SCC(=O)NCc1ccc3c(c1)OCO3)c(=O)n(C)c(=O)n2C	i
COc1ccc(CC(C)(O)CNS(=O)(=O)c2cc(C)c(Cl)cc2Cl)cc1 (centres undefined)	i
COc1ccc2oc(=O)c(C(=O)OC3CCCCC3)cc2c1	i
CCc1ccc(S(=O)(=O)N2CCN(Cc3nc4ccccc4[nH]3)CC2)s1	i
CCNC(=O)N1CCC(c2nnc(C3CC3)s2)CC1	i
Cc1noc(CNC(=O)C2CCN(C(=O)c3snnc3C)CC2)n1	i
COc1ccc2c(=O)c3c(oc2c1)C(=O)N(c1nccs1)C3c1ccccc1 (centres undefined)	i
O=C(NCC1CCCO1)c1cccc(S(=O)(=O)N2CCCC2)c1 (centres undefined)	i
CCCc1cc(=O)[nH]c(-n2nc(C3CC3)cc2NC(=O)c2cc3ccccc3o2)n1	i
CCN(CC)CCN1C(=O)C(O)=C(C(=O)c2cc3cccc(OC)c3o2)C1c1ccco1 (centres undefined)	i
COc1ccc(OCc2noc(CNC(=O)c3ccc(C(C)(C)C)cc3)n2)cc1	i
Cn1cc(-c2nc(-c3ccccc3)no2)c(=O)c2cc(F)c(N3CCCCC3)cc21	i
Cc1nc(-n2nc(-c3cccs3)cc2NC(=O)c2ccc(OC(C)C)cc2)[nH]c(=O)c1C	i
CSc1cccc2sc(N(Cc3cccnc3)C(=O)/C=C/c3ccccc3)nc12	i
Cc1csc(C(=O)N2CCCC(c3nnc(-c4ccccc4F)s3)C2)c1 (centres undefined)	i
CC(NC(=O)c1csc(Nc2ccc(S(C)(=O)=O)cc2)n1)c1ccccc1 (centres undefined)	i
CCOc1ccc(OC(C)C(=O)NCCCn2ncccc2=O)cc1 (centres undefined)	i
NC(=O)CSc1ncc(-c2ccccc2)n1-c1ccc(OC(F)(F)F)cc1	i
Cc1cc(C(=O)N2CCN(CCNC(=O)CN3C(=O)c4ccccc4C3=O)CC2)no1	i
COc1ccc(C(=O)Nc2nnc(-c3cc(C)ccc3C)o2)c(OC)c1	i
O=C(Nc1nc(CN2CCc3ccccc3C2)cs1)c1ccccc1F	i
CC(=S)Nc1ccc2scnc2c1	i
COc1ccc(CNC(=O)c2nnn(Cc3nc(-c4cccc(OC)c4OC)oc3C)c2N)cc1	i
O=C(Nc1ccc2c(c1)CCCN2C(=O)c1cccs1)NC1CCCCC1	i
Cn1cc(C(=O)N2CCCC2)cc(NC(=O)c2cc(Cl)ccc2Cl)c1=O	i
Cc1cccc(-c2noc(-c3sc4ncn(CC(=O)N5CCCC5)c(=O)c4c3C)n2)c1	i
CS(=O)(=O)c1ccc2nc(NC(=O)c3csc(Nc4ncccn4)n3)sc2c1	i
CCn1c(SCC(=O)N2CCOc3ccc(C)cc32)nc2c3cc(OC)ccc3n(C)c2c1=O	i
COc1cccc(C(=O)Oc2c(S(=O)(=O)c3ccc(C)cc3)c(C)nn2C(C)(C)C)c1	i
COc1cc2nc3sc(Nc4ccc(Cl)cc4)nn3c(=O)c2cc1OC	i
COc1cccc(COc2coc(C(=O)N3CCN(c4ccccc4F)CC3)cc2=O)c1	i
O=C(NCCCN1CCN(c2ccccc2)CC1)C(=O)Nc1ccc(F)c(Cl)c1	i
COc1ccc(S(=O)(=O)NCCC(=O)N2CCC(C)CC2)cc1N(C)S(C)(=O)=O	i
CC(=O)Nc1ccc(SCCCC(=O)Nc2nc3ccc(C)cc3s2)nn1	i
CN1C(=O)C(C(=O)N2CCN(c3ccccn3)CC2)C2CC1(C)Oc1ccccc12 (centres undefined)	i
Cn1ccnc1SCC1CCN(C(=O)c2c[nH]c3ccccc23)CC1	i
Cc1ccc(Cl)cc1N1CCN(C(=O)c2cn(C)nc2C)CC1	i
CCCCNC(=O)Cc1ccc(-n2c(=O)c3ccccc3n(Cc3cccc(F)c3)c2=O)cc1	i
COc1ccc(-c2c(NC(=O)CN3CCC(C)CC3)oc3ccccc3c2=O)cc1OC	i
COc1ccc(C)cc1NC(=O)C(=O)NCC1CCN(C(=O)c2ccoc2)CC1	i
COCCCN1COc2ccc3c(c2C1)O/C(=C\c1cc(OC)c(OC)c(OC)c1)C3=O	i
COc1ccc(CC(C)(O)CNS(=O)(=O)c2cccc3ccccc23)cc1 (centres undefined)	i
COc1ccc(C(=O)Nc2nnc(-c3cccs3)o2)cc1OC	i
COc1ccc2c(c1)c(CC(=O)NCCO[N+](=O)[O-])c(C)n2C(=O)c1ccc(Cl)cc1	i
CCOc1ccc(-c2cc(C(=O)Nc3sc4c(c3C(N)=O)CCCC4)no2)cc1	i
O=c1c2nc(N3CCOCC3)sc2c(-c2ccccc2)nn1CCc1ccccc1	i
CC(C)c1ccc(NC(=O)C(=O)NCC2CCN(Cc3cccs3)CC2)cc1	i
CC(C)N1CCc2c(sc(NC(=O)CCc3ccccc3)c2-c2nc3ccccc3s2)C1	i

Some of the entries so far, as labelled records:
CCOc1ccc(-c2cc(C(=O)Nc3sc4c(c3C(N)=O)CCCC4)no2)cc1
  GIRK2 act: i
O=c1c2nc(N3CCOCC3)sc2c(-c2ccccc2)nn1CCc1ccccc1
  GIRK2 act: i
CC(C)c1ccc(NC(=O)C(=O)NCC2CCN(Cc3cccs3)CC2)cc1
  GIRK2 act: i
CC(C)N1CCc2c(sc(NC(=O)CCc3ccccc3)c2-c2nc3ccccc3s2)C1
  GIRK2 act: i

Next part.
SMILES	GIRK2 act
Cc1ccc(NC(=O)NC2CC2)cc1N1CCCC1=O	i
O=C(/C=C/c1cccs1)N1CCCC(c2nnc(-c3ccccc3F)s2)C1 (centres undefined)	i
Cc1noc(C)c1S(=O)(=O)NCC(O)c1ccoc1 (centres undefined)	i
CCOc1ccc(N2C(=O)C3N=NN(Cc4nc(-c5cccc(C)c5)no4)C3C2=O)cc1 (centres undefined)	i
Cc1ccc(N2C(=O)C3N=NN(Cc4nc(-c5ccccc5C)no4)C3C2=O)cc1C (centres undefined)	i
COc1cccc(NC(=O)N2CCN(Cc3nnnn3-c3ccc(C)cc3)CC2)c1	i
CCOC(=O)c1c(NC(=O)CSc2n[nH]c(N)n2)sc2c1CCCCC2	i
CCCNC(=O)Cn1nc2c(c1NC(C)=O)CSC2	i
Cc1cc(CCNC(=O)c2ccc(-n3cccc3)cc2)on1	i
CC(C)(C)NC(=O)Nc1nc(-c2ccc(F)cc2)cs1	i
CON=C1NC(=O)/C(=C/c2ccc3ncccc3c2)S1	i
O=C(NC(=S)Nc1ccc(S(=O)(=O)N2CCOCC2)cc1)c1ccco1	i

Reprinted from the part before: 2 entries, followed by the next part.
SMILES	GIRK2 act
CON=C1NC(=O)/C(=C/c2ccc3ncccc3c2)S1	i
O=C(NC(=S)Nc1ccc(S(=O)(=O)N2CCOCC2)cc1)c1ccco1	i
COCCc1noc(-c2ccc(=O)n(CC(=O)Nc3cccc(Br)c3)c2)n1	i
Cc1c(C)n2c3c(=O)[nH]c(=O)n(C)c3nc2n1Cc1ccco1	i
COC(=O)c1ccccc1NC(=O)CSc1nccn2nc(-c3ccccc3)cc12	i
CC(C)(C)C(=O)Oc1ccc(OCc2ccccc2)cc1	i
O=C(COc1cccc(C(F)(F)F)c1)Nc1cc(-n2cccn2)ncn1	i
COCC(C)(O)CNS(=O)(=O)C1CCCCC1 (centres undefined)	i
COc1ccc(CC(C)(O)CNC(=O)CN2C(=O)CCC2=O)cc1 (centres undefined)	i
CCOc1ccccc1C(=O)Nc1cccc(N2CCCS2(=O)=O)c1	i
COc1ccc(CC(C)(O)CNC(=O)C(=O)NCc2cccs2)cc1 (centres undefined)	i
O=C(Cn1cnc2c([nH]c3ccccc32)c1=O)N1CCN(c2ncccn2)CC1	i
O=C(c1ccc(Cl)cc1Cl)N1C2CCCC1COC2	i
Cc1cc(C(=O)Nc2nc3c(s2)CN(C(=O)c2cc(C)oc2C)CC3)no1	i
Cc1nnc(C2CCCN(C(=O)CSCc3ccccc3)C2)s1 (centres undefined)	i
O=C(Nc1nc(-c2ccc(Cl)cc2)cs1)C1CCN(S(=O)(=O)c2ccc(Cl)cc2)CC1	i
COc1ccccc1NC(=O)CSc1nnc2n(CCC(=O)NC(C)C)c(=O)c3ccccc3n12	i
CCCCS(=O)(=O)N1CCC(Oc2ccccn2)CC1	i
Cc1cc(C(=O)NCCC2CCCCN2S(=O)(=O)c2cccs2)no1 (centres undefined)	i
COCCNC(=O)CSc1nc(-c2ccc(SC)cc2)[nH]c1-c1ccccc1	i
COC(=O)C1c2ccsc2CCN1C(=O)c1cnn(-c2ccccc2)n1 (centres undefined)	i
CCc1nccn1CC1CCN(C(=O)CCc2c(C)noc2C)CC1	i
CCOC(=O)c1ncn2c1CN(C)C(=O)c1cc(F)ccc1-2	i
N#Cc1cccc(C(=O)Nc2cnoc2)c1	i
O=C(Cn1cc(S(=O)(=O)N2CCCC2)ccc1=O)Nc1ccccc1	i
NC(=O)CSc1ccnc(SCC(N)=O)n1	i

Reprinted from the part before: 2 entries, then new ones.
SMILES	GIRK2 act
O=C(Cn1cc(S(=O)(=O)N2CCCC2)ccc1=O)Nc1ccccc1	i
NC(=O)CSc1ccnc(SCC(N)=O)n1	i
O=C(CCn1c(=O)oc2ccc(Cl)cc21)NCCN1CCOCC1	i
Cc1ccccc1Cn1nnc2c(=O)n(Cc3nc(-c4cccc(Br)c4)no3)cnc21	i
COc1ccc2c(c1)c(CC(=O)Nc1ccncc1)c(C)n2C(=O)c1ccc(Cl)cc1	i
CCCS(=O)(=O)NCC(Cc1cccc(F)c1)N1CCCCC1=O (centres undefined)	i
Cc1csc(CN2CCN(C(=O)c3cc(Cl)ccc3Cl)CC2)n1	i
COc1ccccc1C(=O)N1CCN(c2oc(/C=C/c3ccccc3)nc2C#N)CC1	i
CC(=O)c1cccc(NC(=O)Cn2cccc2-c2nc(-c3ccc(Cl)cc3)no2)c1	i
Cc1c(C(=O)O)sc2nc(SC/C=C/c3ccccc3)nc(N)c12	i
CCCCCC(O)/C=C/[C@H]1C2CC(O)C1C/C=C\CCCC(=O)O2 (some centres undefined)	i
O=C(c1ccc(Cl)s1)N1CCN(CC(O)C2CC2)CC1 (centres undefined)	i
O=C(OC1CN(c2nc3c(F)cc(F)cc3s2)C1)c1csc(-c2ccccc2)n1	i
O=C(c1ccc2c(c1)OCO2)N1CCN(Cc2nc(-c3ccc(F)cc3)cs2)CC1	i
COc1ccc(C(=O)Nc2cc(C)nn2-c2nc3c(cnn3-c3cccc(C)c3C)c(=O)[nH]2)cc1OC	i
COc1ccc(Cl)cc1NC(=O)NCCNc1cc(Nc2cc(C)ccn2)ncn1	i
Cc1ccc(-c2noc(-c3cccn(CC(=O)Nc4cccc(Cl)c4C)c3=O)n2)cc1	i
COc1cccc(N2CC(NC(=O)c3ccccc3OC)CC2=O)c1 (centres undefined)	i
Cc1cc(C)n(-c2ccc(=O)n(CC(=O)Nc3ccc(F)c([N+](=O)[O-])c3)n2)n1	i
Cc1ccc2nc3c(cc(C(=O)NCCc4ccccc4)n3Cc3ccccc3)c(=O)n2c1	i
O=S(=O)(c1ccc(OC(F)(F)F)cc1)N(CCc1cccs1)C1CC1	i
Cc1ccc(N2CCN(C(=O)Nc3cccc(C(F)(F)F)c3)CC2)nn1	i
COc1cccc(C2C(C(=O)Nc3ccc(C)cc3C)C(C)Nc3ncnn32)c1OC (centres undefined)	i
CCC(C)n1c(C)cn2c3c(=O)n(CCOC)c(=O)n(C)c3nc12 (centres undefined)	i
CCCn1c(=O)c2sc(N3CCCC3)nc2n(CC(=O)Nc2ccc(S(C)(=O)=O)cc2)c1=O	i
CCNC(=O)NCC(C)(O)CCSC (centres undefined)	i
COc1cccc(C(=O)Nc2cccc(-n3c(C)nc4ccccc4c3=O)c2)c1OC	i
Cc1cccc(NC(=O)c2nnn(Cc3nc(-c4ccc(Cl)cc4)oc3C)c2C)c1C	i
O=C(Nc1ccc(CN2CCN(c3ccccn3)CC2)cc1)C1CCCCC1	i
O=C(NCCN1CCCCC1)C1CCN(c2nc3c(-c4ccccc4F)csc3c(=O)[nH]2)CC1	i
O=C(NCCNc1ccc(-n2cccc2)nn1)Nc1ccc2c(c1)OCCO2	i
O=C(C1COc2ccccc2O1)N1CCC2(CC1)OCCS2 (centres undefined)	i
CCNC(=O)N1CC(c2nc(-c3ccccc3)no2)C1	i
O=C(CCCn1c(=S)[nH]c2cc3c(cc2c1=O)OCO3)NCCc1ccccc1	i
COc1ccc(OC)c(S(=O)(=O)N2CCN(Cc3nc4ccccc4n3C)CC2)c1	i
NNC(=O)COc1ccc(-c2n[nH]c(C(F)(F)F)c2-c2ccc(Cl)cc2)c(O)c1	i
Cc1cc(C)n(CC(=O)Nc2ccc3c(c2)OCO3)c(=O)c1-c1nc(-c2ccc3c(c2)OCO3)no1	i
COc1ccccc1N1CCN(CCNC(=O)C(=O)Nc2cccc(Cl)c2C)CC1	i

Brought forward from above: 2 entries, then new ones.
SMILES	GIRK2 act
Cc1cc(C)n(CC(=O)Nc2ccc3c(c2)OCO3)c(=O)c1-c1nc(-c2ccc3c(c2)OCO3)no1	i
COc1ccccc1N1CCN(CCNC(=O)C(=O)Nc2cccc(Cl)c2C)CC1	i
COc1ccc(OC)c(S(=O)(=O)NCC(c2ccc(F)cc2)N2CCOCC2)c1 (centres undefined)	i
Cc1csc(SCC2CCN(S(=O)(=O)c3cccc(C(F)(F)F)c3)CC2)n1	i
COCCn1c(=NC(=O)CSC(C)=O)sc2ccccc21	i
COc1ccc(NC(=O)Cn2nc3ccc(-c4ccc(C)c(C)c4)nn3c2=O)cc1OC	i
